Screening data: PubChem, several laboratories
Hsc70 = small molecules displacing fluorescent ligand from Hsc70 – biochemical, fluorescence polarization, primary screen (AID 568); Hsc70 fluorescence polarization, probe displacement; higher % means a stronger effect; strong numbers were not always called active; one-dose displacement, % at 20 µM; IC50 in µM for titrated hits; 83,000 tested, under 10 active;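 active = displacement above 50% without optical interference and an IC50 on retest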;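 note: ATPase domain with a fluorescein-tagged ATP probe; 0% = vehicle and 100% = excess ADP; read after one hour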
MT1-MMP promoter = MT1-MMP gene expression reporter suppression – cell-based, luciferase reporter, luminescence (AID 618); MT1-MMP promoter luciferase reporter cells, luminescence; calls from a first round at 10 µM; hits with a dose series show EC50 in µM; 87,000 compounds, 0.62% hits;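 active = over half of the reporter light lost at 10 µM or EC50 under 50 µM; inactive = the rest and hits that failed the dose series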;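 note: actives suppress MT1-MMP promoter-driven transcription so potencies describe inhibitors; HT1080 fibrosarcoma cells; overnight exposure; toxic or luciferase-blocking compounds were not removed from the actives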
WNV protease inh = WNV NS2B-NS3 proteinase inhibition. WNV NS2B-NS3 protease, fluorogenic substrate Ex360/Em465; stronger effect = lower value. 65,000 compounds, 0.18% hits. AID 577. z-score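 (tested at a level between 10 and 100 µM)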;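 active = z-score at -3 or under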;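 note: score is relative to mean and spread of the compound wells of a plate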
Target sequence (P06935 1371-1501 limits assumed): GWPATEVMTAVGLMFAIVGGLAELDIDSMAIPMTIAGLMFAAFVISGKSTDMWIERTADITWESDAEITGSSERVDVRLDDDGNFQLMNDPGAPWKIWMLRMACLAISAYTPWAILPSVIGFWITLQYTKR
Target sequence (P06935 1502-1679 limits assumed): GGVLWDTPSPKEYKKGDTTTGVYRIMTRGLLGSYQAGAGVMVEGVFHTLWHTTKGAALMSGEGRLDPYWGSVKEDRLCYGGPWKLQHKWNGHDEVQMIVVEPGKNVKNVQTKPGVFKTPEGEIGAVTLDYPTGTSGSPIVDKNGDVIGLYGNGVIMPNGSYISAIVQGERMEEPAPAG
The depositor's hits bear a star; i = inactive; x = not tested or not shown.

| molecule | Hsc70 | MT1-MMP promoter | WNV protease inh |
| --- | --- | --- | --- |
| O=c1[nH]c2ccc(S(=O)(=O)N3CCN(Cc4ccccc4)CC3)cc2[nH]c1=O | 4.0% | i | 1.3 |
| Cc1cccc(N2C(=O)CC(N3CCN(Cc4ccc5c(c4)OCO5)CC3)C2=O)c1 (stereo not given) | -0.7% | i | 0.32 |
| CC(C)(Oc1ccc(Cl)cc1)C(=O)NC1CCSC1=O (stereo not given) | 4.0% | i | -0.64 |
| CCn1c(CNc2ccc(OC)cc2)nnc1SCC(=O)Nc1ccc(F)cc1 | 4.9% | i | x |
| Cc1cccn2c(=O)c(C=NCc3ccco3)c(Nc3ccc(Cl)cc3)nc12 | -2.0% | i | -3.3* |
| CCOC(=O)c1nn(-c2ccccc2)c(C(=O)OCC)c1N | -3.7% | i | 1.8 |
| O=C(O)c1cc(S(=O)(=O)Nc2ccc3c(c2)OCCO3)c(Cl)cc1Cl | 2.0% | i | 0.32 |
| O=C(c1nc2nc(-c3ccccc3)cc(C(F)(F)F)n2n1)N1CCCCC1 | -1.2% | i | -0.36 |
| COC(=O)Nc1ccc(S(=O)(=O)N2CCN(c3ccc(F)cc3)CC2)cc1 | 7.1% | i | 0.2 |
| Cc1nnc(SCC(=O)NC(=O)NCc2ccco2)n1Cc1ccccc1 | 0.0% | i | x |
| Cc1cccc(-n2ncc3c(NCCCO)ncnc32)c1 | -1.3% | i | -0.24 |
| COc1ccc(C(=O)CSc2nnc(CNc3nc(-c4ccccc4)cs3)n2C)cc1 | 7.6% | i | 1.4 |
| Cc1ccc(-n2cnc3cc(NCc4cccs4)ccc32)cc1 | 7.0% | i | x |
| COc1ccc(Cl)cc1Nc1nc(C)cc(=O)[nH]1 | -1.3% | i | -1.5 |
| Cc1ccc2nc3n(c(=O)c2c1)CCC3 | -2.5% | i | 0.19 |

In the list so far, 4 contain a Cl atom.
| molecule | Hsc70 | MT1-MMP promoter | WNV protease inh |
| --- | --- | --- | --- |
| CC(C)(Oc1ccc(Cl)cc1)C(=O)NC1CCSC1=O (stereo not given) | 4.0% | i | -0.64 |
| Cc1cccn2c(=O)c(C=NCc3ccco3)c(Nc3ccc(Cl)cc3)nc12 | -2.0% | i | -3.3* |
| O=C(O)c1cc(S(=O)(=O)Nc2ccc3c(c2)OCCO3)c(Cl)cc1Cl | 2.0% | i | 0.32 |
| COc1ccc(Cl)cc1Nc1nc(C)cc(=O)[nH]1 | -1.3% | i | -1.5 |

Remaining list, next part:
| molecule | Hsc70 | MT1-MMP promoter | WNV protease inh |
| --- | --- | --- | --- |
| O=C(OCCOc1ccccc1Cl)c1ccc(-n2cnnn2)cc1 | 1.0% | i | 1.3 |
| O=C(c1ccc(C#Cc2ccccc2)o1)N1CCN(c2ccccn2)CC1 | 3.2% | i | 0.23 |
| COC(=O)C1=CN(CCCN2CCCC2=O)C=C(C(=O)OC)C1c1cccs1 | -13% | i | 0.64 |
| Cc1ccc(CNS(=O)(=O)NCc2ccccc2)cc1 | 5.0% | i | x |
| c1ccc2c(c1)C(=NCC1CCCO1)NC2=NCC1CCCO1 (stereo not given) | 4.8% | i | -0.55 |
| COc1ccc(NC(=O)CSc2nnc(C3CC3)n2N)cc1 | -3.2% | i | -1.4 |
| Cc1ccc(C2(C)NC(=O)N(CC(=O)NC(=O)NCCC(C)C)C2=O)cc1 (stereo not given) | 1.0% | i | -1.1 |
| O=C1CCC(=O)N1CCOP1(=O)COc2ccccc2OC1 | 1.9% | i | 0.35 |
| O=C(C1CCN(S(=O)(=O)c2ccccc2)CC1)N(CCc1ccccc1)Cc1ccco1 | 0.2% | i | 0.14 |
| Cc1cc(NC(=O)Cc2cccs2)no1 | -2.2% | i | -0.12 |
| CCOc1ccc(OCC)c(NC(=O)C2CCCN(S(=O)(=O)c3cnc[nH]3)C2)c1 (stereo not given) | 3.0% | i | -0.38 |
| COCCn1nnnc1C(c1ccccn1)N1CCN(c2cc(C)ccc2C)CC1 (stereo not given) | 1.7% | i | 0.88 |
| COc1cccc(CC(=O)Nc2nccs2)c1 | 1.2% | i | -1.7 |
| COC(=O)c1ccc(C(=O)OC)c(NC(=O)CN2CCN(c3ccccc3OC)CC2)c1 | -1.4% | i | 0.66 |
| C=CCN(C(=O)CNC(=O)c1ccco1)C(C(=O)NC1CCCCC1)c1ccccc1 (stereo not given) | 25% | i | -0.68 |
| CC(C)Cn1c(SCC(=O)NC(=O)Nc2ccc3c(c2)OCCO3)nc2ccccc2c1=O | -2.2% | i | -0.67 |
| CCc1sc(NC(=O)COC)nc1-c1ccccc1 | 6.2% | i | -1.1 |
| CC(=O)Nc1cc2c(nc1C)nc(C)n2Cc1ccc(Br)cc1 | -2.5% | i | 0.06 |
| CC(C)(C)c1nnc(NC(=O)C2CCN(c3ncccn3)CC2)s1 | 5.0% | i | -0.37 |
| CCNC(=O)NC(=O)CSc1cccc(C(F)(F)F)c1 | 5.9% | i | 1.1 |
| Cc1nn(CCO)c(C)c1Oc1ccccc1O | -1.1% | i | 0.4 |
| CC(C(=O)NCc1ccccc1)N(CCN1CCOCC1)C(=O)c1snc(C(N)=O)c1N (stereo not given) | 3.6% | i | -1.4 |
| CCOC(=O)c1[nH]c2ccccc2c1CCCN1C(=O)c2ccccc2C1=O | -1.6% | i | x |
| COc1ccc(NC(=O)CSc2nnc(-c3ccccc3C)n2C)cc1 | 2.4% | i | -0.55 |
| Cc1oc(C2CC2)cc1C(=O)O | -4.9% | i | -0.77 |
| Cc1cc(C)n(C(=O)c2c([N+](=O)[O-])cnn2C)n1 | -2.5% | i | x |
| CCOC(=O)c1oc2ccc(CNCCO)c(Cl)c2c1C | -1.0% | i | -0.26 |
| CCn1c(SCC(=O)N2CCc3ccccc3C2)nc2c1c(=O)n(C)c(=O)n2C | 3.8% | i | 0.06 |
| CCN(CC)S(=O)(=O)c1ccc(C2CNC(=O)C2)cc1 (stereo not given) | 1.1% | i | -2.2 |
| Cc1ccc(N2C(=O)c3ccccc3C2=O)cc1C | -2.2% | i | -0.24 |
| COc1ccc(CSc2nnc(C)n2N)cc1 | 0.3% | i | 0.41 |
| COC(=O)C1C(C(C)C)N(c2ccccc2)OC1(C)O (stereo not given) | -3.9% | i | -0.51 |
| CCS(=O)(=O)N1CCC(C(=O)Nc2cccc(C(C)=O)c2)CC1 | -3.3% | i | -0.9 |
| O=C1C(C23CC4CC(CC(C4)C2)C3)C(=O)N(c2ccccc2)N1c1ccccc1 | 1.1% | i | x |
| Cc1ccc(NC(=O)/C(CN(C)C)=N\O)cc1 | -0.4% | i | -0.21 |
| CC1(C)Cc2c(sc(/N=C/N3CCCC3)c2C#N)C(C)(C)N1 | -1.1% | i | x |
| CCCCCCn1c(N2CCN(c3ccccc3)CC2)nc2c1c(=O)[nH]c(=O)n2C | -1.6% | i | -0.68 |
| Cc1ccc2nc(NC(=O)C3CCN(S(=O)(=O)c4ccc5c(c4)oc(=O)n5C)CC3)sc2c1 | -1.0% | i | 0.78 |
| Cc1ccc(S(=O)(=O)NCc2ccc(C(=O)N(C)CCC#N)cc2)cc1 | -4.4% | i | 0.24 |
| COc1ccccc1-n1c(C)nnc1SCC(=O)Nc1cccc(C(C)=O)c1 | -2.6% | i | 0.7 |
| O=C(OCc1nnc(-c2ccccc2)o1)C1=COCCO1 | -1.8% | i | 0.07 |
| O=C(N1CCOCC1)N1CCN(S(=O)(=O)c2ccccc2)C1 | -3.8% | i | -0.74 |
| O=C(NCc1cccc(Cl)c1)c1cnccn1 | 34% | i | 0.08 |
| CN(C)c1cc[n+](Cc2c(Cl)cccc2Cl)cc1 | 3.3% | i | x |
| COc1cccc(CNC(=O)C2CCCN(S(=O)(=O)c3c(C)[nH]c(=O)[nH]c3=O)C2)c1 (stereo not given) | -3.1% | i | x |

Not a retest: entries from further up.
| molecule | Hsc70 | MT1-MMP promoter | WNV protease inh |
| --- | --- | --- | --- |
| O=c1[nH]c2ccc(S(=O)(=O)N3CCN(Cc4ccccc4)CC3)cc2[nH]c1=O | 4.0% | i | 1.3 |
| Cc1cccc(N2C(=O)CC(N3CCN(Cc4ccc5c(c4)OCO5)CC3)C2=O)c1 (stereo not given) | -0.7% | i | 0.32 |

Going on with the list:
| molecule | Hsc70 | MT1-MMP promoter | WNV protease inh |
| --- | --- | --- | --- |
| CC(=O)Nc1ccc(-c2csc(NCc3ccco3)n2)cc1 | 1.5% | i | x |
| COc1ccc(CC(=O)Nc2cc(Cl)ccc2O)cc1 | 0.0% | i | 0.39 |
| O=C1CC(c2ccccc2)CN1Cc1ccccc1 (stereo not given) | -5.8% | i | 0.65 |
| CCOC(=O)N1CCN(Cc2nc3c(c(=O)[nH]c(=O)n3C)n2Cc2cc(C)ccc2C)CC1 | 1.9% | i | -0.61 |
| O=C(OCc1c(Cl)cccc1Cl)c1ccccn1 | 7.0% | i | -0.96 |
| CCN(Cc1ccccc1)C(c1ccc(C(F)(F)F)cc1)c1nnnn1C(C)(C)C (stereo not given) | 2.4% | i | x |
| O=C(c1ccco1)N1CCN(c2ncnc3c2oc2ccccc23)CC1 | 2.6% | i | 0.17 |
| CC(NC(=O)Cc1cccs1)C(c1cccs1)N1CCN(c2ccccc2)CC1 (stereo not given) | -15% | i | -0.003 |
| O=C(NC1CC1)c1cc(=O)c2ccccc2o1 | -3.1% | i | x |
| O=S(=O)(c1cccs1)n1cccn1 | 2.1% | i | 0.13 |
| Cc1c(Cl)cccc1NC(=O)CCN1CCCCCC1 | 1.9% | i | -0.33 |
| O=C(CC(c1ccccc1)c1ccccc1)Nc1ccc2c(c1)OCCO2 | -1.3% | i | x |
| CCC(C)(C)n1nnnc1C(c1ccc2ncccc2c1)N1CCCCCC1 (stereo not given) | 2.0% | i | x |
| Cc1ccc(Cn2c(CN3CC(C)OC(C)C3)nc3c2c(=O)[nH]c(=O)n3C)cc1 (stereo not given) | 1.2% | i | 0.24 |
| O=C(Cc1n[nH]c(=O)[nH]c1=O)N/N=C/c1cccc(O)c1 | 1.5% | i | x |
| CC1CCCC(C)N1CCNC(=O)CCn1nc(-c2ccccc2)ccc1=O (stereo not given) | -3.9% | i | -0.03 |
| O=C(Nc1cccc(Cl)c1)c1cnn2cccnc12 | -0.8% | i | -0.59 |
| COc1cc(C2SCC(=O)N2CCCN(C)C)cc(OC)c1OC (stereo not given) | 2.6% | i | x |
| COc1ccc(C)cc1Nc1cc(C)nc2ncnn12 | -2.7% | i | -0.37 |
| COC(=O)C(NC(=O)c1ccccc1)(Nc1cc(C)cc(C)n1)C(F)(F)F (stereo not given) | 1.1% | i | x |
| c1ccc2c(c1)ncn2Cc1nnc2sc(-c3ccncc3)nn12 | -2.3% | i | -1.2 |
| CC1CCN(CCNC(=O)c2ccc3c(=O)n(CCc4ccccc4)c(=O)[nH]c3c2)CC1 | -14% | i | 1.2 |
| CC1CCCCC1NC(=O)CN1CCN(Cc2ccccc2Cl)C1=O (stereo not given) | -4.8% | i | -0.62 |
| Cc1ccc(N2CC(C(=O)N3CCN(C(=O)c4ccco4)CC3)CC2=O)cc1 (stereo not given) | -5.2% | i | -0.51 |
| Cn1c(CCNC(=O)c2ccco2)nc2cc(NC(=O)c3ccco3)ccc21 | -2.7% | i | -1.3 |
| CCOc1ccccc1NC(=O)CN(c1ccc(C)cc1)S(=O)(=O)c1c(C)noc1C | 3.0% | i | -0.17 |
| CCNc1c2c(nc3ccccc13)CC(C)(C)CC2=O | 8.2% | i | x |
| COc1cccc(C(=O)Nn2c(C)nnc2-n2nc(C)cc2C)c1 | 1.1% | i | x |
| CCOC(=O)CSc1nnc(CSc2nc(C)cc(C)n2)n1Cc1ccco1 | 0.5% | i | -0.75 |
| O=C(Cn1c(=O)sc2ccccc21)NCCOc1ccccc1F | -0.6% | i | -0.47 |
| CC1(C)CC(=O)C2=C(C1)OC(N)=C(C#N)C2C1CC=CCC1 (stereo not given) | -3.2% | i | 1.1 |
| CCn1c2ccccc2c2nnc(SCc3cc(=O)n4ccsc4n3)nc21 | 0.3% | i | -1.2 |
| O=C1c2ccccc2C(O)N1c1cccnc1 (stereo not given) | 2.6% | i | -0.08 |
| CCN(CC)c1ccc(N2C(=O)c3ccccc3C2=O)cc1 | -3.9% | i | -0.49 |
| COc1ccc(C)cc1NC(=O)CSc1nnc(-c2ccc(C)cc2)o1 | -1.0% | i | -1.2 |
| Cn1c(NC(=O)c2ccc(Cl)cc2Cl)cc(=O)n(C)c1=O | 3.1% | i | 1.2 |
| O=C1OC(Nc2ccccn2)c2ccccc21 (stereo not given) | -2.4% | i | x |
| Nc1ccc(O)c(-c2nc3ccccc3s2)c1 | 0.7% | i | -0.93 |
| COC(=O)c1cccc(N(C(=O)c2cnccn2)C(C(=O)NCc2ccccc2)c2ccco2)c1 (stereo not given) | -7.1% | i | -0.83 |
| C=CCCC(=O)Nc1ccc(COC(=O)N2CCOCC2)cc1 | 2.0% | i | 1 |
| c1ccc2c(CSc3nnc(-c4ccncc4)o3)cccc2c1 | -4.4% | i | x |
| CCOC(=O)N1CCN(c2nc(-c3ccc(OC)cc3)no2)CC1 | 2.2% | i | -1.1 |
| CC(C)C(NS(=O)(=O)c1cccs1)C(=O)N(C)Cc1ccccc1 (stereo not given) | 0.6% | i | x |
| Cc1ccccc1-n1c(C)nc2ccccc21 | 4.8% | i | -1.1 |
| Cn1c2c(c(=O)n(C)c1=O)C(NC(=O)c1ccco1)(C(F)(F)F)C(=O)N2 (stereo not given) | -1.7% | i | -0.42 |
| NC(=O)CC1(CC(=O)O)CCCCC1 | -5.9% | i | 0.99 |
| COc1cccc(NC(=O)C2CC(=O)n3cnnc3S2)c1 (stereo not given) | 0.0% | i | -1.2 |
| COc1cc(CN2CCC(C(=O)NC3CCCC3)CC2)cc(OC)c1O | 7.8% | i | 1.5 |

Random draw from the library. About 0.8% of those tested had a hit in this group.
